Bfl-1 A1 inh = inhibitors of the anti-apoptotic protein A1, read as caspase activation | caspase activation, % (no concentration beside the values) | MEF A1-2A-BIM cells, Caspase-Glo 3/7 luminescence, 3 h; percent of clofoctol response, vehicle zero | 330,000 compounds, 0.066% hits | AID 2462;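 active = over half of replicate activation scores above 10%, or exactly half above 10 with the replicate mean above 10; inconclusive = replicate mean below 10 yet half the replicates above 10; inactive = over half of replicates below 10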;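 also: wells of about 30 µL received 50 nL stock; many hits fall short of the cut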
Beta apoptosis = blocks beta cell apoptosis | INS-1E cytokine-induced death, ATP luminescence, 48 h; percent of positive-control rescue, neutral wells zero | protection from apoptosis, % (test concentration not listed) | 300,000 compounds, 0.8% hits;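 active = all replicates at 75% or more, or half of them and the mean; inconclusive = half reach 75% but not the mean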;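 also: 0% = cytokine-treated negative control wells and 100% = positive control rescue; higher means more ATP so stronger rescue from cytokine killing; wells of about 40 µL received 100 nL stock; the first replicate is given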
rRNA inh HTS = selective bacterial rRNA inhibition in E. coli; 350,000 compounds, 1.6% hits; E. coli WT GFP vs humanized-ribosome RFP mutants, fluorescence, 24 h; hits give low values; DMSO median 0, no signal -100; GFP signal change (wild-type ribosome), % (concentration not given with the values);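 active = significant combined selectivity score with lowered wild-type GFP, culture density cut under 30%, mutant RFP and density less affected; inactive = any of these conditions unmet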; also: one replicate is shown; some compounds called inactive have numbers as strong as hits
LANA-H2A inh = blocks KSHV LANA binding to histone H2A/H2B | Q9QR71 | cell-free LANA-H2A/H2B peptide, fluorescence polarization | inhibition, % (no concentration beside the values) | 320,000 compounds, 0.6% hits | AID 2629; in the data active = inhibition mostly above about 10%, no sharp cut-off; inactive = mostly below about 6.7%;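 also: stock transfer was 7.5 nL into about 10 µL; 0% = median of vehicle wells and 100% = median of positive control wells; one replicate is shown; the record names a cut of 25% in any replicate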
Target sequence (Q9QR71 whole entry, looked up): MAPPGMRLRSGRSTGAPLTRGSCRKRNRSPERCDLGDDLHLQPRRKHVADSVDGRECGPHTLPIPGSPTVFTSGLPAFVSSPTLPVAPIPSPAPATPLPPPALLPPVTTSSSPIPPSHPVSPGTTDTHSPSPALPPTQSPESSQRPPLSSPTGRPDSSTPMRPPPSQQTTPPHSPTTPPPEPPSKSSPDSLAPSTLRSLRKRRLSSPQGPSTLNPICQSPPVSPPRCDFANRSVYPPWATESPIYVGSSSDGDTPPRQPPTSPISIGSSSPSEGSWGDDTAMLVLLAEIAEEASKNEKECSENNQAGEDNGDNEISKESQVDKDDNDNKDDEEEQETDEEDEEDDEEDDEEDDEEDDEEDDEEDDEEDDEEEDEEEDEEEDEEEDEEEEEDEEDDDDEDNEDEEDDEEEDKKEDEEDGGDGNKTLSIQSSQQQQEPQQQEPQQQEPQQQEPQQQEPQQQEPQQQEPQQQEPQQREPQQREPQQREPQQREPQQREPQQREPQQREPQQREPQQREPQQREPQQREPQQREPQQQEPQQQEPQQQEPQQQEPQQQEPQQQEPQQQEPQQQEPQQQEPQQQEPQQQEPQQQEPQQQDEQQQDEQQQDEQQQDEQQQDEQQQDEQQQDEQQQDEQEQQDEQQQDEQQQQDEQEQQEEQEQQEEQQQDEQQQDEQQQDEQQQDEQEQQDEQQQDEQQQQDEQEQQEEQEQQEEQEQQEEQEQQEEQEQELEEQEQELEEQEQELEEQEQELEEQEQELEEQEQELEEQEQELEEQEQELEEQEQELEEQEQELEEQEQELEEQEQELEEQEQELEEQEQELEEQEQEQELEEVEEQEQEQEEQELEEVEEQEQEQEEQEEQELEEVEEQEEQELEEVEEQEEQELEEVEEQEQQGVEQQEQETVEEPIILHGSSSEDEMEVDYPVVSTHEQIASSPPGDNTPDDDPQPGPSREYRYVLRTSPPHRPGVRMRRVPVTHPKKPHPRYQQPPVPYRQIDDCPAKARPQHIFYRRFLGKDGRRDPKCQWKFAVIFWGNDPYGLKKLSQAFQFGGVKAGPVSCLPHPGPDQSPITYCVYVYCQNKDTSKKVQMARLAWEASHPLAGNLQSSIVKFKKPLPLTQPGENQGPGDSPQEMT
T cruzi repl = T. cruzi replication inhibition. T. cruzi beta-gal in NIH3T3, luminescence, 90 h. inhibition, % (concentration not given with the values). 300,000 compounds, 1.4% hits. AID 1885;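 active = mean inhibition across valid replicates above about 55%, limit read from the data; inconclusive = mean below that limit but half or more replicates reach it; inactive = mean below it, under half of replicates reach it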;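 also: signal also drops with host cell toxicity which is not excluded here; 0% = plate median of DMSO wells and 100% = zero luminescence signal; higher percent means less beta-gal luminescence so fewer parasites; stock transfer was 50 nL into about 50 µL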
Calb FLC = C. albicans growth modulation with fluconazole | growth inhibition, % (no concentration beside the values) | C. albicans CaCi-2 (fluconazole-resistant clinical isolate) + fluconazole, Alamar Blue growth, 48 h | 300,000 compounds, 0.57% hits;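 active = most replicates above 75%; inconclusive = exactly half above 75%; inactive = most below 75%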;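 also: all wells also contain fluconazole at 8 µg/ml as a sub-toxic cotreatment; 0% = median of DMSO wells and 100% = median of geldanamycin control wells; wells of about 8 µL received 7.5 nL stock; the first replicate is given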
ALR H2O2 inh = blocks human ALR sulfhydryl oxidase activity; P55789; purified ALR, DTT oxidation, H2O2 HRP-luminol luminescence; inhibition, % (concentration not given with the values); 290,000 compounds, 3.8% hits; AID 485317;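 active = mean and each replicate at 75% or more; inconclusive = only one of the two met; inactive = neither met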;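 also: stock transfer was 7.5 nL into about 7.5 µL; 0% = neutral wells and 100% = wells with inactivated enzyme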
B2AR ag = agonists of human beta-2 adrenergic receptor inducing internalization. P07550. Am2.2-beta2AR cells, FAP receptor internalization, flow cytometry; reference of the scale not given here. response, % (test concentration not listed). 340,000 compounds, 0.43% hits;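 active = response above a set limit, near 3 SD of response in nonfluorescent compounds, cut at about 42% in these data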;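 also: stock transfer was 100 nL into about 11 µL; a reference agonist was the positive control; negative values mostly stem from fluorescent compounds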
rRNA inh HTS OD600 = recorded beside rRNA inh HTS, whose call it bears; OD600 change, %; measured here: OD600 growth;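 optical density of the mix in the first replicate; 0 = DMSO median and -100 = no signal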
rRNA inh HTS RFP = also measured in rRNA inh HTS; calls as there; RFP signal change, %; measured here: RFP humanized mutant strains;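 first replicate; 0 = DMSO median and -100 = no signal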
Active calls of the source: *; ? = inconclusive; · = not tested or not shown. A portion of the library; count on the stated rates, not on these rows.

Molecule,Bfl-1 A1 inh,Beta apoptosis,rRNA inh HTS,rRNA inh HTS OD600,rRNA inh HTS RFP,LANA-H2A inh,T cruzi repl,Calb FLC,ALR H2O2 inh,B2AR ag
COc1ccc(/C=N/OCC(=O)N2CC3(C)CC2CC(C)(C)C3)cc1 (stereo not drawn),0.5,-5.6,-8.5,-5.6,0.7,-0.2,5.0,?,0.1,12.2
O=C(NCc1ccc2c(c1)OCO2)c1nn2cccnc2c1Cl,0.2,-1.0,·,·,·,5.2,6.0,9.3,-1.7,1.1
COc1ccc(NC2c3ccccc3C(=O)N2c2cccnc2)cc1Cl (stereo not drawn),-0.2,4.8,0.0,6.0,0.6,3.0,5.0,0.1,82.6*,-2.7
COc1ccc(-c2ccc(-c3nnn(CC(C)=O)n3)cc2)cc1,0.4,9.8,·,·,·,-2.2,-18.2,16.3,-9.2,16.4
Cc1ccc(NC(=O)CN2CCC(C(N)=O)CC2)cc1[N+](=O)[O-],1.0,-7.9,5.1,-0.7,-3.6,-1.0,-8.2,47.0,-0.4,-8.4
CCOC(=O)c1ccc(NS(=O)(=O)c2ccc(SC)cc2)cc1,-0.4,-6.0,·,·,·,-1.2,-1.9,-1.2,-5.0,-6.7
O=C(NCc1ccccc1F)C(=O)NCC1CCCN1S(=O)(=O)c1ccccc1 (stereo not drawn),0.8,-5.6,6.8,2.7,-0.5,-6.0,9.0,7.5,3.5,5.0
CCc1ccc(/C=C2/C(=O)NC(=O)N2C(C)=O)cc1,0.8,-0.2,-1.1,3.7,2.5,-1.8,-11.5,·,49.3,-1.4
Nc1nc2n(n1)C(c1ccccc1Cl)CC(c1ccc(F)cc1)N2 (stereo not drawn),-0.1,-4.6,-10.8,-16.6,-3.0,2.3,45.3,-0.6,38.8,2.7
CN(c1ccc(C(=O)NCCC2=CCCCC2)cc1)S(C)(=O)=O,-3.3,3.7,·,·,·,4.0,14.2,2.7,-2.1,2.3
Cc1cc(=O)n2nc(N3CCCC(C(=O)NCc4ccco4)C3)sc2n1 (stereo not drawn),-0.6,-5.8,·,·,·,1.4,-21.0,-7.7,-37.5,-2.9
NC1=NS(=O)(=O)NC1c1cccc(F)c1 (stereo not drawn),0.2,·,11.4,5.7,0.0,5.0,-2.5,-10.9,-3.5,0.8
COc1ccc(-n2nc(C(=O)NCC(=O)N3CCN(c4ccccc4OC)CC3)c3ccccc3c2=O)c(OC)c1,-0.6,-9.4,-0.6,0.1,2.8,1.9,2.9,-3.9,-5.0,12.2
CCCc1cc(C(=O)Cc2ccc(F)cc2)c(O)cc1O,1.4,4.0,·,·,·,-2.8,-4.0,-35.5,5.6,-0.7
COc1ccccc1N1CCN(CCN(C(=O)c2ccc(F)cc2)c2ccccn2)CC1,0.3,-0.4,4.4,7.2,4.2,0.3,·,·,94.3*,-3.0
Cn1c(=O)c2c(nc(Oc3ccccc3Br)n2C)n(C)c1=O,1.5,-4.2,2.9,3.8,-0.4,8.0,0.1,-10.8,-12.3,3.4
COc1ccccc1NS(=O)(=O)c1cc(NC(=O)c2cc(F)c(F)c(F)c2F)ccc1N1CCOCC1,1.9,10.1,4.8,5.0,-4.6,-0.1,·,·,0.3,0.6
COCCCNC(=O)c1ccc2c(c1)CCN2S(C)(=O)=O,0.1,-3.8,·,·,·,-2.8,-2.4,-0.3,-4.4,-4.2
Cc1ccc(C(=O)N2CC(C)OC(C)C2)cc1S(=O)(=O)N1CCCCC1 (stereo not drawn),0.8,-3.1,16.8,0.1,1.5,0.2,·,·,-3.6,0.1
CS(=O)(=O)N(Cc1ccccc1)c1ccc(C(=O)Nc2ccc3c(c2)OCO3)cc1,0.7,1.4,·,·,·,2.0,0.2,-11.9,-3.9,4.9

Going on with the list:
Molecule,Bfl-1 A1 inh,Beta apoptosis,rRNA inh HTS,rRNA inh HTS OD600,rRNA inh HTS RFP,LANA-H2A inh,T cruzi repl,Calb FLC,ALR H2O2 inh,B2AR ag
CSc1cccc(NC(=O)CC(C)n2ccnc2)c1 (stereo not drawn),0.1,·,2.4,10.5,0.6,-0.7,-4.9,-5.4,·,5.6
CC(=O)Nc1ccc(S(=O)(=O)NCC2CCC(C(=O)NCCC3=CCCCC3)CC2)cc1 (stereo not drawn),0.2,4.0,6.9,12.7,-3.6,-2.6,7.0,45.1,3.9,-2.2
N#Cc1nc(-c2ccc([N+](=O)[O-])cc2)oc1N1CCCCC1,0.2,-2.5,2.4,1.0,0.5,-5.2,-4.6,-2.2,20.6,2.8
CCOc1ccc(-c2nnc(N3CCOCC3)c3ccccc23)cc1,-0.1,8.2,-15.5,-18.9,-6.5,-0.3,-0.5,2.2,1.8,-4.3
CC(C)OC(=O)c1ccc(NC(=O)c2cccc(-n3cnnn3)c2)cc1,-0.6,6.7,-3.3,-20.6,0.2,-3.2,·,·,2.6,4.3
COc1cccc(-n2c(C)nnc2SCC#N)c1,-0.4,0.4,·,·,·,0.0,-8.9,-3.6,-8.5,1.0
O=C(CSc1nccc(=O)[nH]1)NC1CCCCCCC1,-0.6,-1.0,·,·,·,-1.2,·,·,1.6,-5.3
Cc1ccc(S(=O)(=O)c2nc(-c3ccccc3)oc2NCCCN2CCOCC2)cc1,·,·,3.6,1.9,0.5,·,3.8,-11.7,·,-6.2
O=C1C(=O)N(CCN2CCCCC2)c2ccccc21,-0.7,-2.9,7.8,12.6,-3.1,-3.3,8.0,-11.2,-5.9,23.4
O=S(=O)(c1ccccc1)N1N=C(c2ccccc2)CC1c1ccco1 (stereo not drawn),?,3.0,·,·,·,1.4,-9.9,12.7,-3.1,·
COC(=O)NCC(C)OC(=O)Nc1cccc(Cl)c1 (stereo not drawn),0.1,-1.5,·,·,·,-8.5,3.1,-12.7,-0.9,-5.6
COc1ccc(C2C=C(c3ccc(F)cc3)NC(=S)N2)cc1OC (stereo not drawn),-0.3,26.2,8.9,11.6,2.5,6.0,5.7,13.3,-13.8,-4.7
COc1ccc(C(=O)COC(=O)c2ccc3ccccc3n2)cc1,-1.1,-5.1,-8.9,10.2,2.1,-1.6,-4.2,18.7,-1.0,2.6
CCN(CCCNC(=O)C1CCC(=O)N1Cc1ccccc1Cl)c1cccc(C)c1 (stereo not drawn),-0.2,-4.2,·,·,·,7.9,2.3,-3.2,98.9*,14.0
Cc1c(Nc2nc3ccccc3nc2NS(=O)(=O)c2cccc(Cl)c2)c(=O)n(-c2ccccc2)n1C,?,-5.8,-17.1,-23.6,-6.0,3.7,-22.6,24.0,8.8,6.8
CC1CN(C(=O)c2cc3cc(Cl)cc(Cl)c3oc2=O)CC(C)O1 (stereo not drawn),-1.0,-17.4,·,·,·,1.2,0.3,4.4,-5.1,0.3
C=CCn1c(=O)c2ccccc2n2c(SC(C)C(N)=O)nnc12 (stereo not drawn),1.4,-1.4,-2.5,-1.3,4.3,0.9,-5.2,-9.1,-18.2,-0.2
Cn1nnnc1SCC(=O)Nc1ncc(C(F)(F)F)cc1Cl,-0.3,1.5,5.0,13.0,1.6,3.2,·,·,·,0.5
CN(Cc1cnccn1)C(=O)CC1C(=O)NCCN1Cc1cccc(Oc2ccccc2)c1 (stereo not drawn),1.1,-2.8,5.9,16.4,3.9,3.4,1.6,-0.7,·,-11.5
CCCCNC(=S)NC(=O)c1ccccc1Br,-0.3,2.5,6.7,10.2,-1.8,-0.4,-6.6,3.3,-9.7,-1.4

The list goes on.
Molecule,Bfl-1 A1 inh,Beta apoptosis,rRNA inh HTS,rRNA inh HTS OD600,rRNA inh HTS RFP,LANA-H2A inh,T cruzi repl,Calb FLC,ALR H2O2 inh,B2AR ag
O=C(Nc1ccc(-c2nnn(CC(=O)N3CCN(C(=O)c4ccco4)CC3)n2)cc1)c1ccccc1F,0.3,9.6,11.2,5.0,1.9,-3.3,-1.3,-1.9,-12.9,·
O=C(CN1CCN(c2ccccc2O)CC1)NCCCc1ccccc1,-1.2,-1.1,-12.1,-13.3,-0.7,-0.1,5.7,-11.1,98.8*,4.5
CCc1cccc(NC(=O)C2CCN(S(=O)(=O)c3cccs3)CC2)c1,0.7,-4.2,-15.8,-6.0,-1.9,-4.6,32.8,-3.1,-5.4,-0.1
COc1cc2c(cc1OC)C(C)N(S(=O)(=O)c1ccc(C)cc1)CC2 (stereo not drawn),1.9,·,-13.5,-13.3,2.4,-7.4,6.6,12.6,·,-3.2
COc1cc2c(cc1OC)C(c1ccc([N+](=O)[O-])cc1)NC(=O)C2 (stereo not drawn),-0.2,·,0.6,1.2,-1.0,10.0,-21.8,1.0,-17.1,1.3
Cc1ccccc1C(=O)Nc1ccc(N2CCCCCC2)cc1,0.0,10.7,-26.6,-36.2,-6.8,-3.3,5.7,26.1,68.7,14.0
CC1CC(C)CN(CCCNC(=O)Cn2cccc2C(=O)c2ccccc2)C1 (stereo not drawn),-1.3,0.7,16.1,13.2,0.4,-0.3,32.9,-8.8,-1.2,5.5
COc1ccc(S(=O)(=O)N2CCCCCC2)cc1C(=O)N(C)Cc1ccc(OC)c(OC)c1OC,-0.8,-0.2,-8.2,-4.1,1.1,7.1,13.4,-3.9,-3.7,50.8*
O=C(/C=C/c1ccco1)Nc1cccc(C(=O)Nc2ccccc2C(=O)O)c1,0.7,3.3,-4.2,2.1,7.1,4.0,12.7,-1.3,95.2*,-2.4
O=C(Nc1ccc2oc(-c3ccncc3)nc2c1)c1ccc(F)cc1,0.5,2.6,13.6,13.6,2.5,-3.3,14.6,5.7,-38.1,9.7
COc1ccc(N2C(=O)CCC2=O)cc1,0.3,-4.0,·,·,·,0.8,-3.1,-1.5,14.1,-3.8
O=C(NCCc1csc(-c2ccccc2)n1)c1c(F)cccc1F,0.7,3.3,3.1,-5.2,-6.6,-2.4,3.5,-0.6,37.0,4.1
CC(C)(C)CC(=O)NC(=S)NCc1ccccc1,0.8,0.8,2.2,-0.6,1.2,-2.4,29.2,-53.5,-11.9,-6.5
N=C1SCC(=O)N1c1ncc(Cc2ccccc2Cl)s1,·,·,-55.5,-80.4,-28.5,·,5.8,48.4,·,4.5
O=C(CSc1nc2ccccc2c(=O)[nH]1)N1CCCCC1,0.6,·,4.6,4.0,2.0,1.0,-4.0,-8.2,-6.2,3.7
O=C(Cc1ccc(Cl)c(Cl)c1)Nc1ccc(S(=O)(=O)Nc2ncccn2)cc1,0.0,-4.0,3.8,7.5,-1.1,-2.6,-4.5,-0.4,-8.5,-4.0
CC(NC(=O)CCl)c1ccc(Cl)c(Cl)c1 (stereo not drawn),0.2,-7.3,·,·,·,3.0,-13.0,-2.1,·,-7.5
Cc1ccc(S(=O)(=O)N2CCOCC2)cc1C(=O)N1C(=O)c2cccc(N)c2C1=O,-0.9,-10.0,·,·,·,7.9,-2.0,25.1,·,-4.4
CC(=O)Nc1ccc(NC(=O)CSC2=NS(=O)(=O)c3cc(Cl)ccc3N2)cc1,0.0,-5.0,10.6,5.1,0.3,·,2.3,-0.6,·,·
Cn1c(=S)[nH]c2[nH]c(=O)cnc2c1=O,0.9,0.5,-10.5,-2.8,-1.2,0.5,-3.0,22.2,9.8,-1.3
